PrP 5UTR inh: suppresses PrP 5' UTR mRNA reporter expression; cell-based PrP 5' UTR mRNA reporter, plate reader; 340,000 compounds, 0.35% hits; inhibition, % (test concentration not listed);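 active = every replicate at 50% or more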;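 note: 0 = median of the neutral control wells; tested in H4 reporter cells; numbers are from one replicate; inactives centre near -14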
ugtP null kill: compounds lethal to S. aureus RN4220 ugtP deletion mutant. OD600 growth, 16 h; some inactives read as strong as hits. growth inhibition, % (test concentration not listed). 330,000 compounds, 0.54% hits;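 active = z-score under -3 and OD600 up to 0.15 on both plates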;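 note: plate controls were untreated wells for no effect and antibiotic for full effect; wells of about 80 µL received 100 nL stock; the first replicate is given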
BJeLR viability: BJeLR cell viability loss; BJeLR (HRASV12) viability, CellTiter-Glo ATP luminescence, 48 h; reference of the scale not given here; AID 1554; inhibition, % (no concentration beside the values); 300,000 compounds, 0.17% hits;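 active = replicate mean above 50%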;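 note: 50 nL library stock added to about 25 µL; numbers are from one replicate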
Mtb hypoxia rep: Mtb hypoxia fluorescent reporter inhibition; M. tuberculosis hypoxia-regulated fluorescent reporter, fluorescence; fluorescence inhibition, % (concentration not given with the values); 300,000 compounds, 0.1% hits;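 active = 35 to 45% if threefold the growth effect, above 45% if 1.5-fold the growth effect; inactive = the rest, general growth blockers included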;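 note: wells of about 50 µL received 100 nL stock; 0% = vehicle wells and 100% = reference inhibitor wells; whole bacteria with a GFP reporter of the hypoxia response; strong numbers were not always called active; many hits fall short of the cut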
Sa RN4220 lethal: S. aureus RN4220 growth inhibition; inhibition, % (concentration not given with the values); OD600, 16 h; 330,000 compounds, 0.33% hits;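 active = z-score of -3 or lower and OD600 up to 0.18 on both plates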;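 note: plate controls were untreated cells for no effect and reference antibiotic for full effect; stock transfer was 100 nL into about 80 µL; one replicate is shown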
Autofluor counter: flagged as autofluorescent in microsphere protease counterscreen. AID 624483. 360,000 compounds, 3.1% hits. compound autofluorescence counterscreen, microsphere flow cytometry; hits give high values. fluorescence intensity (test concentration not listed);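 active = at least 3 SD above the mean of all compounds, about 16000 in these data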;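 note: 100 nL of 1 mM stock went into each well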
Mtb hypoxia rep growth: also measured in Mtb hypoxia rep; calls as there; growth inhibition, %; measured here: M. tuberculosis growth (absorbance);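 0% = vehicle and 100% = reference antibiotic; read after six days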
An asterisk follows results filed as active; · = not tested or not shown. No enrichment for hits. Share with any hit: about 4%.

No.	Structure	PrP 5UTR inh	ugtP null kill	BJeLR viability	Mtb hypoxia rep	Mtb hypoxia rep growth	Sa RN4220 lethal	Autofluor counter
1	COc1ccc(OC)c(/C=C/C(=O)N(C)CC(=O)Nc2ccc(C)cc2)c1	-14.2	2.9	0.3	14.1	1.3	8.6	7576
2	COCc1c(C(=O)NC(C)c2ccc(S(N)(=O)=O)cc2)oc2ccccc12 (stereo not drawn)	-27.2	-1.8	-9.0	5.2	2.1	-1.4	3723
3	COc1ccc(C(=O)Nc2ccc(Cc3ccncc3)cc2)cc1Br	-8.8	8.7	-0.5	0.1	10.9	-0.4	2606
4	CC(C)(C)c1ccc(-c2nc3n(c(=O)c2C#N)CCS3)cc1	-11.7	5.3	-9.6	10.3	12.5	1.2	4634
5	Clc1cccc(NC2=NCCC2)c1	-12.7	5.1	·	16.0	15.1	9.1	3165
6	COC(=O)C1=C(C)N(Cc2ccco2)C(=O)NC1c1ccccc1 (stereo not drawn)	·	-15.6	·	7.9	7.2	1.7	·
7	Brc1ccc2nc3c(n2c1)CCCC3	9.2	4.2	-3.3	1.4	8.9	-0.2	4649
8	NC(=O)NCc1ccccc1	-12.3	5.0	-3.9	3.8	-4.8	4.5	3069
9	Cc1ccn(CC(C)C(=O)O)n1 (stereo not drawn)	-20.6	3.8	-1.1	-4.9	-10.8	2.8	4523
10	CCOC(=O)C1CCCN(C(=O)c2cc3nc(-c4ccc5c(c4)OCO5)cc(C(F)(F)F)n3n2)C1 (stereo not drawn)	9.3	-15.6	-4.1	3.4	8.6	16.1	9433
11	O=C(Nc1cccc(S(=O)(=O)NC2=NCCC2)c1)c1cc(F)c(F)c(F)c1F	-7.3	-1.9	·	-3.9	17.2	0.3	5824
12	O=C(Nc1ccccc1C(=O)NC(Cc1c[nH]c2ccccc12)C(=O)O)c1ccccc1 (stereo not drawn)	-22.2	·	8.8	·	·	·	4624
13	O=C(O)CCN1CC2([N+](=O)[O-])C=CC(=O)C([N+](=O)[O-])(C1)C2CC(=O)c1ccccc1 (stereo not drawn)	-13.7	12.7	-2.4	16.7	7.8	9.6	2170
14	Cc1ccc(-c2cn3c(n2)CCCC3)cc1	-6.2	1.0	3.5	-2.3	0.9	-1.1	4116
15	COc1ccc(C(=O)Nc2cccc(S(=O)(=O)N3CCCC3)c2)cc1S(=O)(=O)N1CCOCC1	-4.1	5.5	·	15.0	5.7	3.1	3702
16	CN1CCN(c2ccc([N+](=O)[O-])cc2NC(=O)c2ccco2)CC1	-6.6	2.8	6.3	7.8	2.0	0.9	5723
17	COCCN(C(=O)c1ccco1)c1nnc(-c2ccc(OC)cc2)s1	-58.7	1.1	4.1	7.9	4.3	0.8	3813
18	CN(C)N1C(N)=C(C#N)C(c2ccccc2)C2=C1CCCC2=O (stereo not drawn)	-17.9	11.3	-8.3	12.5	9.8	5.5	3781
19	CSCCC(NC(=O)c1ccco1)C(=O)N(C)CC(=O)Nc1c(Cl)cccc1Cl (stereo not drawn)	-7.5	10.9	-9.7	6.4	1.0	0.0	4555
20	CCOP(=O)(c1ccccc1Cl)C1(O)CCCCC1 (stereo not drawn)	-8.3	-9.0	11.0	·	·	2.3	4754

Reprinted at random: 2 compounds from above, in no set order.
No.	Structure	PrP 5UTR inh	ugtP null kill	BJeLR viability	Mtb hypoxia rep	Mtb hypoxia rep growth	Sa RN4220 lethal	Autofluor counter
13	O=C(O)CCN1CC2([N+](=O)[O-])C=CC(=O)C([N+](=O)[O-])(C1)C2CC(=O)c1ccccc1 (stereo not drawn)	-13.7	12.7	-2.4	16.7	7.8	9.6	2170
16	CN1CCN(c2ccc([N+](=O)[O-])cc2NC(=O)c2ccco2)CC1	-6.6	2.8	6.3	7.8	2.0	0.9	5723

(next part)
No.	Structure	PrP 5UTR inh	ugtP null kill	BJeLR viability	Mtb hypoxia rep	Mtb hypoxia rep growth	Sa RN4220 lethal	Autofluor counter
21	O=C1c2ccccc2C(=O)N1c1nc2nccc(-c3ccccc3)n2n1	8.9	0.5	-4.6	11.9	8.7	0.1	6809
22	Cc1cccc(NC(=O)NCC(F)(F)F)n1	-8.6	5.6	3.2	6.2	17.6	0.1	19660*
23	O=S1(=O)CCOCC(CC2CCCCC2)N1Cc1ccccc1F (stereo not drawn)	·	14.3	·	1.0	8.1	17.7	·
24	Cc1cccc(C(=O)NCC(=O)N2CCOCC2)c1	-30.8	6.5	2.0	10.8	6.3	3.4	5810
25	CC1CCCCC1NC(=O)CN(C)S(=O)(=O)c1cccc2nsnc12 (stereo not drawn)	-13.7	-5.9	-1.8	·	·	-0.1	2915
26	Cc1c(Cl)cccc1NC(=S)N1CCC(N(C)CC2CCCO2)CC1 (stereo not drawn)	-5.7	6.8	-5.1	2.0	7.3	0.4	3493
27	O=C(Cc1ccccc1)Nc1ccc2oc(-c3cccnc3)nc2c1	-15.7	9.4	6.4	·	·	-1.4	3049
28	CS/C(=C\[N+](=O)[O-])Nc1ccc(OC(F)(F)F)cc1	-34.7	9.7	0.8	10.9	11.5	-0.4	2655
29	COCCOC(=O)C1=C(C)Nc2nc(C)nn2C1c1ccccc1 (stereo not drawn)	11.0	-5.5	-2.0	4.4	9.9	-3.1	17088*
30	C=CC1C(N2CCOCC2)C(C)(C)S1(=O)=O (stereo not drawn)	-12.2	-0.9	-1.9	·	·	-1.1	2240
31	Cc1ccccc1OCCOc1ccc([N+](=O)[O-])cc1/C=N/n1cnnc1	-31.3	·	14.3	·	·	·	2176
32	O=C(C(=O)N1CCOCC1)c1cn(Cc2ccccc2Cl)c2ccccc12	-18.9	4.6	4.6	-8.4	6.9	4.0	3588
33	COc1ccc(CC(=O)N2CCN(c3cccc(Cl)c3)CC2)cc1OC	14.2	1.0	1.8	-0.8	3.0	-0.1	4400
34	CC(=O)[C@H]1[C@@H]2C(=O)N(c3cccc(Cl)c3)C(=O)[C@@H]2[C@H]2c3ccccc3C=CN21	-24.9	-3.3	·	·	·	-1.0	2213
35	Cc1ccc(OCCNC(=O)c2cncc(Br)c2)cc1C	-6.1	-5.4	-0.9	6.8	5.4	1.8	2961
36	CC(C(=O)O)C1SC(=O)NC1=O (stereo not drawn)	3.9	0.8	-4.8	8.6	2.1	5.6	2405
37	O=C1c2ccccc2C(O)N1c1ccc(Cl)cc1 (stereo not drawn)	-43.3	-7.4	9.2	6.8	7.1	-6.0	5475
38	O=C(Cc1ccccc1C(=O)O)Nc1cccc2ccccc12	-12.7	3.7	-4.2	7.1	0.6	4.6	3225
39	N#CC1=C(N)N(c2ccc(Br)cc2)C2=C(C(=O)CCC2)C1c1cccnc1 (stereo not drawn)	5.6	-5.9	-4.5	-19.0	8.3	-3.6	5712
40	O[C@@H](CNC[C@H](O)c1ccccc1)c1ccccc1	-43.4	-2.6	-3.0	0.2	-6.6	5.8	3779

A second format for 4 compounds above.
34) CC(=O)[C@H]1[C@@H]2C(=O)N(c3cccc(Cl)c3)C(=O)[C@@H]2[C@H]2c3ccccc3C=CN21
35) Cc1ccc(OCCNC(=O)c2cncc(Br)c2)cc1C
36) CC(C(=O)O)C1SC(=O)NC1=O (stereo not drawn)
37) O=C1c2ccccc2C(O)N1c1ccc(Cl)cc1 (stereo not drawn)

Screen / compound no. | 34 | 35 | 36 | 37
PrP 5UTR inh | -24.9 | -6.1 | 3.9 | -43.3
ugtP null kill | -3.3 | -5.4 | 0.8 | -7.4
BJeLR viability | · | -0.9 | -4.8 | 9.2
Mtb hypoxia rep | · | 6.8 | 8.6 | 6.8
Mtb hypoxia rep growth | · | 5.4 | 2.1 | 7.1
Sa RN4220 lethal | -1.0 | 1.8 | 5.6 | -6.0
Autofluor counter | 2213 | 2961 | 2405 | 5475

The list goes on.
No.	Structure	PrP 5UTR inh	ugtP null kill	BJeLR viability	Mtb hypoxia rep	Mtb hypoxia rep growth	Sa RN4220 lethal	Autofluor counter
41	Cc1nn(-c2ccccc2)c(C)c1/C=N/NC(=O)c1cc(C2CC2)[nH]n1	-15.3	·	-0.2	·	·	·	2685
42	Cn1c(=O)c(-c2cc(Br)ccc2N)nc2ccccc21	-25.4	-11.3	5.6	·	·	5.3	2689
43	Cc1c(NS(=O)(=O)c2ccc3c(c2)OCCO3)cccc1-c1nc2cccnc2s1	-15.9	2.0	-4.1	6.3	16.0	3.1	4728
44	O=C(NCCc1cn2ccccc2n1)c1ccccc1F	-9.4	-1.4	11.4	-1.1	1.0	-7.3	3096
45	Cc1ccc(OCC(=O)N(Cc2ccco2)c2c(N)n(Cc3ccccc3)c(=O)[nH]c2=O)cc1C	-11.2	3.6	·	13.3	6.7	-4.3	3323
46	CC1=CCC2C(=O)N(c3ccc(C(=O)N4CCCCCC4)cc3)C(=O)C2C1 (stereo not drawn)	-9.2	-1.8	-4.5	·	·	-0.5	2790
47	CC(=O)N1CCc2cc(S(=O)(=O)NCc3ccc(C)cc3)ccc21	-9.5	-4.8	-2.5	5.5	0.1	3.3	6138
48	COc1ccc2cc(C(=O)C3CCCN(C(=O)c4cc5nc(C)cc(C)n5n4)C3)ccc2c1 (stereo not drawn)	-21.2	-0.1	-14.3	-8.6	5.2	-4.6	5530
49	COc1ccc(CCNC(=O)CS(=O)(=O)c2cn(CC(=O)N3CCOCC3)c3ccccc23)cc1OC	-6.0	2.4	-3.8	9.5	1.2	3.8	·
50	Cc1ccc(S(=O)(=O)N2CCc3ccccc3C2)cc1C	-22.8	11.5	11.5	-1.2	1.8	5.4	3495
51	CCc1nc(SCC(=O)N2CCOCC2)c2c(=O)n(C)c(=O)n(C)c2n1	7.9	4.6	-7.6	0.7	0.8	2.1	4130
52	COc1ccc(NC(=O)CN(C)Cc2cccs2)cc1Cl	7.1	-0.4	3.0	8.4	4.6	1.1	3128
53	O=C(NCCOC(=O)c1ccncc1)c1ccccc1	-18.9	0.8	-2.1	10.4	1.9	5.7	2689
54	Cc1cc(N2CCc3ccccc32)n2ncnc2n1	-24.9	-4.0	-7.9	7.8	14.2	2.0	8375
55	O=C1C2C3C=CC(C4CC34)C2C(=O)N1c1nccs1 (stereo not drawn)	-14.5	1.5	-11.8	-7.7	0.0	-3.4	2501
56	CCOC(=O)c1c(N)sc2c1CCCC2=O	-6.7	7.6	7.6	0.3	-11.9	-0.2	4391
57	CCC(C)S(=O)(=O)c1snnc1C (stereo not drawn)	-26.7	-6.7	-0.9	9.2	-2.3	3.4	3118
58	Cc1sc2nc(CSc3nc4ccccc4c(=O)n3CCCN3CCOCC3)[nH]c(=O)c2c1C	-12.5	5.3	-2.7	6.5	4.0	2.9	4846
59	COc1ccccc1NS(=O)(=O)c1cc(NC(=O)c2ccncc2)ccc1N1CCOCC1	-17.7	-5.6	-0.9	2.0	-6.8	2.0	2534
60	CCOc1ccc(C(=O)Nc2cccc3cccnc23)cc1	-33.5	-1.9	-5.3	1.1	-4.9	2.9	3814
61	O=C(Cn1nnc(-c2ccccc2)n1)OCc1ccccc1	-18.6	6.4	-2.0	·	·	2.8	4012
62	COc1ccccc1-n1c(-c2cc(-c3ccco3)[nH]n2)n[nH]c1=S	-27.0	1.3	0.8	5.4	2.1	-2.5	3596
63	CC(=O)Nc1ccc(S(=O)(=O)NC(C)C(=O)NCC(c2ccco2)N2CCCCC2)cc1 (stereo not drawn)	-34.2	5.3	·	5.8	4.2	6.1	5257
64	Cn1c(=O)c2cn3ncccc3c2n(C)c1=O	·	7.7	-0.8	-1.3	0.6	5.5	·
65	O=C(NCc1ccccc1)C(c1ccccc1)N(C(=O)c1csnn1)c1ccccc1 (stereo not drawn)	-21.8	-1.5	-2.6	3.5	-1.8	9.6	2966

Rewritten screen by screen: part of the list above
4	CC(C)(C)c1ccc(-c2nc3n(c(=O)c2C#N)CCS3)cc1
5	Clc1cccc(NC2=NCCC2)c1
6	COC(=O)C1=C(C)N(Cc2ccco2)C(=O)NC1c1ccccc1 (stereo not drawn)
entry no.	4	5	6
PrP 5UTR inh	-11.7	-12.7	·
ugtP null kill	5.3	5.1	-15.6
BJeLR viability	-9.6	·	·
Mtb hypoxia rep	10.3	16.0	7.9
Mtb hypoxia rep growth	12.5	15.1	7.2
Sa RN4220 lethal	1.2	9.1	1.7
Autofluor counter	4634	3165	·

From PubChem
